Mtb betalactam – beta-lactam sensitization of Mtb H37Rv, H37Rv | M. tuberculosis H37Rv growth with meropenem, percent inhibition; hits of this screen are not shown here | inhibition, % at 25 µM | 0.27% of 330,000 active | AID 434955, 2010;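 active = about 74% or more and at least 40 points above the plate without the antibiotic, then above 30% in a dose series; inconclusive = first-round hits that could not be retested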;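 also: growth measured after seven days incubation then overnight dye step; 0% = bacteria only wells and 100% = bacteria with antibiotic; twin plates without the antibiotic show which effects depend on it; some results filed as inactive read as strong as hits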
YopH PTP inh – YopH tyrosine phosphatase inhibitors, primary screen, biochemical, fluorescence Ex485/Em525. inhibition, %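 (about 10 µM by stock and volumes)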. 0.16% of 140,000 active;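 active = inhibition of 50% or more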;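 also: controls were vehicle for no effect and minimum signal wells for full effect; inactives centre near -20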
Arbovirus inh – antivirals against arbovirus infection, primary screen, cell-based, full library, 10K replicate subset | 0.37% of 200,000 active | AID 1251, 2008 | arbovirus infection cell-based antiviral screen | inhibition, % at 10 µM;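 active = inhibition from about 30%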;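 also: bluetongue infection of BSR cells; cell survival read as ATP light after 72 h; 0% = infected wells without compound and 100% = uninfected wells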
RecA intein inh – Mtb RecA intein splicing inhibitors, primary screen, biochemical, fluorescence, HTS; Protein RecA (Mycobacterium tuberculosis (strain ATCC 25618 / H37Rv)), P9WHJ3; cell-free RecA intein splicing; inhibition, %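 (about 9 µM by stock and volumes)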; 0.75% of 290,000 active; AID 2221, 2009; in the data active = inhibition above about 30%; inconclusive = no clear call, values can overlap the other calls;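 also: 0% = vehicle wells and 100% = reference inhibitor control wells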
Target sequence (P9WHJ3 whole entry, looked up): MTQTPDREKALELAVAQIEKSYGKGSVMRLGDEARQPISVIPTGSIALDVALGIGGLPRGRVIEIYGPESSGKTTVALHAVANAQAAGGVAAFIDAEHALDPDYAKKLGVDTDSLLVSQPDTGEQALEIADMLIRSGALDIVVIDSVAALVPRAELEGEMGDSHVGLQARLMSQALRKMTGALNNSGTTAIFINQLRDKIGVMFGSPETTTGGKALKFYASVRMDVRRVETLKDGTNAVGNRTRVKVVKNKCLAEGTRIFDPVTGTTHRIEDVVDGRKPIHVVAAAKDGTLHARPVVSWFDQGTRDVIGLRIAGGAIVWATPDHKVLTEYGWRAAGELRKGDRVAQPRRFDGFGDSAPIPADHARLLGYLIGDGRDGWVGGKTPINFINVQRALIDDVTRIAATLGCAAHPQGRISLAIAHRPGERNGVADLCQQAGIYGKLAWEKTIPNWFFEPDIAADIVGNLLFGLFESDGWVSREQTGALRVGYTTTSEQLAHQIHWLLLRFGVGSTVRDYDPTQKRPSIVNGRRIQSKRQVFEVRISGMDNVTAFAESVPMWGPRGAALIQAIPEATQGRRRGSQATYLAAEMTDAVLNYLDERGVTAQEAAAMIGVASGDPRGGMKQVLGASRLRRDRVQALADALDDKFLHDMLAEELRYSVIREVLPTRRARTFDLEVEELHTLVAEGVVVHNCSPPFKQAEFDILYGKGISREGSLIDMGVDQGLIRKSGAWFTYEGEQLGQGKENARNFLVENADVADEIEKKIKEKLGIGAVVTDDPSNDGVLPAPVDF
Mtb H37Rv – M. tuberculosis H37Rv growth inhibitors, H37Rv strain (AID 1626); M. tuberculosis H37Rv growth inhibition; higher % means a stronger effect; 0.95% of 220,000 active; inhibition, % at 10 µM; hits with a dose series show IC50 in µM;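 active = confirmed in a dose series; inconclusive = inhibition above 80% but not taken into the dose series; inactive = below 80% or under 30% at every dose of the series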;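 also: bacteria incubated seven days before Alamar blue readout; 0% = bacteria only wells and 100% = bacteria with antibiotic wells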
Arbovirus inh repeat – also measured in Arbovirus inh; calls as there; inhibition, %; measured here: 10K subset replicate screen; many hits read low in the repeat;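 first of two repeat runs on a subset; 0% = infected and 100% = uninfected wells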
Starred values were filed as active, the others as inactive; i = inactive; u = inconclusive; x = not tested or not shown.

Start of the data: the first 3 records (preview)
SMILES	Mtb betalactam	YopH PTP inh	Arbovirus inh	RecA intein inh	Mtb H37Rv	others
O=C(Nc1ccc(-n2cc(Cl)cn2)cc1)c1ccncc1	-4	x	x	-3.7	x
CCNc1nc(CN2CCCCC2)nc2scc(-c3ccccc3)c12	x	-1	14	1.7	11%
CCOc1ccc(S(=O)(=O)Nc2ccc(C(=O)NCC(c3ccco3)N(C)C)cc2)cc1 (configuration not stated)	-7	x	x	0.6	x

Main list, from the first entry:
SMILES	Mtb betalactam	YopH PTP inh	Arbovirus inh	RecA intein inh	Mtb H37Rv	others
O=C(Nc1ccc(-n2cc(Cl)cn2)cc1)c1ccncc1	-4	x	x	-3.7	x
CCNc1nc(CN2CCCCC2)nc2scc(-c3ccccc3)c12	x	-1	14	1.7	11%
CCOc1ccc(S(=O)(=O)Nc2ccc(C(=O)NCC(c3ccco3)N(C)C)cc2)cc1 (configuration not stated)	-7	x	x	0.6	x
C=CCSC1=C(C#N)C2(CCCCC2)C(C#N)C(=O)N1 (configuration not stated)	18	-22	-2	-0.3	-9%
CCN(CCO)c1nc(NCc2ccccc2)c2cnn(C)c2n1	1	x	x	4.2	x
CC(=O)c1cc(F)c(N2CCCC2)cc1C	0	-43	-2	0.2	-9%
COc1ccc(C(=O)N/N=C2\CCc3ccccc32)cc1OC	1	x	9	4.1	-5%
CC(=O)c1c2c3c(c(Br)ccc3n(C)c1=O)C(=O)c1ccccc1-2	-2	x	x	-0.9	x
CC1Cc2ccccc2N1C(=O)c1ccc(N2CCCCC2)c([N+](=O)[O-])c1 (configuration not stated)	0	-45	-18	12	14%
COc1ccc(OCC(=O)Nc2c3c(nn2-c2ccc(OC)cc2)CS(=O)(=O)C3)cc1	-2	x	x	-2.1	x
CC(=O)c1c(COC(=O)c2cccnc2)nc2ccccc2[n+]1[O-]	-17	-29	3	6.3	-9%
CSc1ccc(-c2cc(=O)c3ccccc3o2)cc1	70	-9	-15	-25	3%
COc1ccc(-c2cn3ccsc3n2)cc1	-7	-6	-12	-1.3	-6%
COCCN(C(=O)COC(=O)c1ccccc1Oc1ccccc1)c1c(N)n(Cc2ccccc2)c(=O)[nH]c1=O	-12	x	x	4.2	x
COc1ccc2ccccc2c1CNCc1ccc(C)cc1	-9	x	x	-2.4	x
CCOCCCNC(=O)C(C)NS(=O)(=O)c1ccc(C)cc1 (configuration not stated)	-6	1	6	x	-5%
CCOc1ccc(-n2c(SCC(=O)Nc3nccs3)nc3c(c2=O)SCC3)cc1	4	-40	-3	1.8	-4%	Arbovirus inh repeat=-8
Cc1cccn2c(=O)c(/C=C(\C#N)C(=O)NC3CCS(=O)(=O)C3)c(N3CCC(C)CC3)nc12 (configuration not stated)	3	-8	5	i	9%
CCOC(=O)c1c(C)n(Cc2ccc3c(c2)OCO3)c2ccc(O)cc12	-2	-6	3	0.9	-5%
CS(=O)(=O)N(CC(=O)N1CCCCCC1)c1cccc(Br)c1	-3	-40	4	1.3	-12%	Arbovirus inh repeat=2
O=C(Cc1ccc2ccccc2c1)Nc1ccccc1Br	5	x	x	-2.3	x
COCCn1c(=O)[nH]c2cc(C(=O)NCCCN3CCN(c4ccc(F)cc4)CC3)ccc2c1=O	-8	-136	0	-2.6	-4%	Arbovirus inh repeat=2
CCN(CC)S(=O)(=O)c1cccc(NC(=O)C2SC(=Nc3ccc(C)cc3C)C(C(=O)NC(C)COC)=C2N)c1 (configuration not stated)	2	-13	-30	-1.5	10%
Cc1ccc(S(=O)(=O)N(C)C)cc1NC(=S)NC(C)CCCC(C)C (configuration not stated)	0	-17	-18	2.0	-3%
Cc1cc(Cl)ccc1OCC(=O)OC(C)C(=O)NC(N)=O (configuration not stated)	0	-28	-3	0.8	-6%
O=C1NC(=O)/C(=C\c2ccccc2Oc2ccc(F)c(F)c2)S1	0	-4	8	1.5	-5%
Cc1ccnc(NC(=S)NC(=O)/C=C/c2ccc(Cl)cc2)c1	10	-30	-18	2.0	u
O=S(=O)(Nc1nc2ccccc2nc1OCC(F)(F)F)c1cccs1	-9	x	x	0.8	-2%
Cc1cccc(OCC2=N/C(=C\N(C)C)C(=O)O2)c1	5	-28	2	-3.3	8%	Arbovirus inh repeat=4
CCOC(=O)CSc1nsc(SCC(=O)OCC)c1C#N	99	-11	-9	-1.8	12%
CCOC(=O)NC1(Nc2ccc(C)cc2)Oc2ccccc2O1	5	-11	-9	-4.4	9%
Nc1n[nH]c(N)c1N=Nc1ccccc1F	7	x	x	-1.3	x
Cc1cc([N+](=O)[O-])ccc1-c1ccc(/C=N/NC(=O)c2ccc(Br)o2)o1	-21	x	x	-20	x
CCC(=O)N1CCc2cc(S(=O)(=O)CCC(=O)Nc3ccc(C)cn3)ccc21	-8	x	-2	-1.0	-3%
CC1CCN(CCCNC(=O)CCCNC(=O)Cn2cnc3sc4c(c3c2=O)CCCC4)CC1	-8	-18	1	2.5	-10%
COc1ccc(-n2c(C)cc(C(=O)Cn3c(NCCO)nc4ccccc43)c2C)cc1	-5	-12	-21	x	1%
CCOC(=O)c1c(NC(=O)c2ccccc2C(=O)O)sc2c1CCC2	-5	x	x	-1.1	x
CCOc1ccc(NC(=S)N2CCC(NC(=O)c3ccccc3C)CC2)cc1	-3	x	x	-0.4	x
Cc1ccc(S(=O)(=O)NCCC(=O)NC(C)c2ccccc2)cc1 (configuration not stated)	-8	x	x	-4.2	x
Cc1ccc(NC2CCCN(C(=O)c3ccc4[nH]ccc4c3)C2)cc1C (configuration not stated)	9	x	x	-3.0	x
CC(=O)Nc1nc(=S)n(-c2ccccc2)[nH]1	1	-37	-2	1.4	-2%
OC(CNCC1COc2ccccc2O1)COc1ccccc1F (configuration not stated)	2	x	x	2.6	x
CC1CC(C)CN(C(=O)c2ccc(CNc3c(N4CCCC4)c(=O)c3=O)cc2)C1 (configuration not stated)	100	x	x	0.1	1.5µM*
COc1ncnc2c1oc1nc(C(C)C)c3c(c12)CC(C)(C)OC3	-10	-40	10	-4.2	10%
OCCC1CN(Cc2nc3ccccc3s2)CCN1C1CCCCC1 (configuration not stated)	-4	x	-4	-1.3	6%
CC(=O)c1ccccc1NC(=O)COC(=O)CSCC(=O)Nc1cc(C)on1	-3	x	x	-4.2	x
COC(=O)c1ccc2c(C(C)(C)O)c(C(C)(C)O)[nH]c2c1	-4	x	x	4.5	x
CSc1nc2ccccc2c(=O)n1-c1cccnc1	-10	x	x	0.3	-1%
CN1CCc2c(sc(/N=C/c3c[nH]c4ccccc34)c2C(N)=O)C1	6	x	x	-3.3	-3%
CC(=O)Nc1c(C)ccc(S(N)(=O)=O)c1C	4	x	-8	0.0	1%
(further entries)
SMILES	Mtb betalactam	YopH PTP inh	Arbovirus inh	RecA intein inh	Mtb H37Rv	others
COc1ccc(/C(C)=C(\C#N)C(=O)OC(C)C)cc1OC	-5	-3	-9	-0.1	-10%
C=CCNC(=O)C(=O)Nc1ccc2c(c1)N(S(=O)(=O)c1cccs1)CCC2	1	x	x	-0.3	x
O=C(N/C(C(=O)N1CCOCC1)=C(\Sc1ncccn1)c1ccccc1)c1ccccc1	-13	-12	-6	0.2	-8%
CN(Cc1ccccc1)S(=O)(=O)c1ccccc1[N+](=O)[O-]	-2	x	0	-2.6	3%
CS(=O)(=O)Nc1nnc(Cc2ccccc2)s1	14	-3	-10	2.1	-1%
O=C1N/C(=N\N=C\c2ccc3ncccc3c2)SC1Cc1ccc(SC(F)F)cc1 (configuration not stated)	76	-17	0	-2.2	21%
COc1cc(/C=C/C2=CC(C)(C)NC(=S)N2)cc(OC)c1OC	4	x	-7	-0.7	8%
Cc1c(O)nc(SCC(=O)Nc2ccc3c4c(cccc24)CC3)n(-c2ccc(F)cc2)c1=O	-11	-13	12	2.5	0%
COc1ccc(NC(=O)CCCC(=O)c2ccccc2)cc1	68	x	x	-5.8	x
O=C1OCC(CO)(CO)N=C1NNc1cc(Cl)ccc1Cl	98	10	-25	-5.1	45%
NC(=O)C1CCCN(CC(O)COCc2ccc(Cl)cc2)C1 (configuration not stated)	7	x	x	0.1	x
COc1cc(/C=C2\SC(=S)N(NS(=O)(=O)c3ccc(C)cc3)C2=O)ccc1O	5	x	x	8.4	1%
O=C(Cn1cnc2c(nnn2Cc2ccccc2)c1=O)NCc1ccco1	-10	-17	-5	1.2	4%
Cc1cccc(Nc2nc(NC(C)C)nc(Oc3ccc(=O)n(C)n3)n2)c1	-19	-27	-22	4.8	-2%
CCn1c(SCC(=O)Nc2ccc(OC)c(OC)c2)nnc1-c1ccco1	6	x	x	-1.3	-5%
O=C(NCCc1ccccc1)C(=O)NCCC1CCCCN1S(=O)(=O)c1cccs1 (configuration not stated)	-8	x	x	2.7	x
O=C1CCCN1CCCNc1nc2c(S(=O)(=O)c3ccccc3)nnn2c2ccc(Cl)cc12	-1	x	x	2.8	x
O=C(O)C1C2CCC(C2)C1C(=O)NCc1ccco1 (configuration not stated)	2	-47	-1	-2.7	-12%
O=C(CCC(=O)N(Cc1ccco1)C(C(=O)NC1CCCC1)c1ccncc1)Nc1cccnc1 (configuration not stated)	-4	-43	2	-1.8	2%
CC(=O)c1cc(-c2ccc(F)cc2)n(CCC(=O)Nc2cccnc2)c1C	-8	x	4	-3.1	0%
COc1ccc(NC(=O)CN2CCC(C(N)=O)(N3CCCCC3)CC2)cc1	-6	-20	1	-0.3	-1%
CCOc1ccc(S(=O)(=O)N(CC(=O)NCc2cccnc2)c2ccc(F)cc2)cc1	3	x	x	-0.2	x
CCOc1ccc(N(CC(=O)NCCc2ccc(C)cc2)S(=O)(=O)c2c(C)noc2C)cc1	0	x	x	-1.9	x
O=C(CCN1C(=O)/C(=C/c2ccccc2)SC1=S)NC1CCS(=O)(=O)C1 (configuration not stated)	2	x	x	8.2	x
S=C(Nc1ccccc1)Nc1nccs1	99	x	x	0.7	71%
N#C/C(=C(\O)c1cc(Cl)sc1Cl)c1nc2ccccc2[nH]1	5	x	x	-7.8	x
CCn1nccc1C(=O)Nc1ccc(Cl)cn1	-10	-5	-8	0.0	3%
CNc1c([N+](=O)[O-])cnn1-c1ccccn1	2	x	0	1.0	1%
COc1cc(C(=O)NCC2(N(C)C)CCCCC2)ccc1OCc1ccccc1	3	x	x	-0.6	x
CCc1nnc(NC(=O)CCC(=O)O)s1	1	-49	9	-12	3%	Arbovirus inh repeat=0

Overlap with the part before: 5 compounds, then new ones.
SMILES	Mtb betalactam	YopH PTP inh	Arbovirus inh	RecA intein inh	Mtb H37Rv	others
N#C/C(=C(\O)c1cc(Cl)sc1Cl)c1nc2ccccc2[nH]1	5	x	x	-7.8	x
CCn1nccc1C(=O)Nc1ccc(Cl)cn1	-10	-5	-8	0.0	3%
CNc1c([N+](=O)[O-])cnn1-c1ccccn1	2	x	0	1.0	1%
COc1cc(C(=O)NCC2(N(C)C)CCCCC2)ccc1OCc1ccccc1	3	x	x	-0.6	x
CCc1nnc(NC(=O)CCC(=O)O)s1	1	-49	9	-12	3%	Arbovirus inh repeat=0
CCc1nnc(NC(=O)CSc2nnc(Cc3ccccc3)o2)s1	6	-19	5	0.6	-5%
O=C(COc1ccccc1Br)Nc1ccc2c(c1)OCCCO2	-1	x	x	2.3	x
CCc1noc(C)c1C(=O)NC1CCCc2c1cnn2-c1cc(C)cc(C)c1 (configuration not stated)	-4	x	x	2.4	x
Cc1occc1C(=O)Nc1c(Cl)cccc1Cl	-4	x	x	-0.4	x
NC(=O)c1nn(-c2ccccc2)nc1NC(=O)CSc1nnnn1-c1ccc(Cl)cc1	-4	11	-3	-2.1	-10%
O=C(/C=C/c1cccc([N+](=O)[O-])c1)NC1CC2CCC1C2 (configuration not stated)	100	-14	-4	3.5	6µM*
CC[N+]1(CC)CC2=Cc3c(ccc4ccccc34)CC2C1 (configuration not stated)	-16	-20	-1	-1.9	-7%
CCOC(=O)c1ccc(NC(=S)N2CCCC2c2ccc(OC)c(OC)c2)cc1 (configuration not stated)	21	x	-1	-1.3	17%
Nc1nonc1-c1noc(-c2ccc(Br)o2)n1	-10	-27	-3	2.8	x
CC(C)(C)c1ccccc1OCCOCCSc1ncccn1	13	-19	16	11	3%
O=C(c1ccc2c(c1)OCCO2)N1CCCCC1	-3	-123	7	0.9	-12%	Arbovirus inh repeat=2
COc1ccc2c(c1OC)C(=O)N1C2SC(C)(C)[C@H]1C(=O)NCCCOC(C)C (some centres not stated)	-3	x	x	0.4	x
Cc1ccc(C(=O)Oc2ccc(C(=O)COC(=O)c3cnccn3)cc2)cc1	15	-25	10	-1.4	-5%
CCc1cccc(CC)c1NC(=O)CN1C2CCCC1CC(NC(=O)Nc1cccc(OC)c1)C2 (configuration not stated)	86	x	-13	-2.6	9%

Not all compounds are listed; rates above refer to the full screens.
